Compound activity deposited in PubChem BioAssay by Broad Institute.
A1 apoptosis 2 = A1 inhibitors via caspase activation, primary screen, cell-based, luminescence, HTS, two replicates. MEF A1-2A-BIM cells, caspase-Glo luminescence, 3 h; percent of clofoctol response, DMSO zero. caspase activation, % (test concentration not listed). 24,000 tested, under 10 active. AID 2465, 2010; in the data active means caspase activation above about 5.9%;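 further: wells of about 30 µL received 50 nL stock; the first replicate is given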
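Evaluation: Caspase-3/7 activity from luminescence increase | Assay system: A1-2A-BIM mouse embryonic fibroblasts | Quantity: 2500 MEF cells/well | Medium: RPMI-1640 plus 10% FBS | Detection: Caspase-Glo 3/7 luminescence, 1 h at room temperature | Dosing: 50 nL compound per well, pinned | Timing: Cells settled overnight, compound exposure 3 h at 37 °C, 5% CO2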
Starred values were filed as active, the others as inactive. A portion of the library, so the mix of outcomes need not match the whole.

Results for C[C@H](CO)N1C[C@H](C)[C@H](CN(C)C(=O)NC2CCCCC2)Oc2ccc(NS(C)(=O)=O)cc2C1=O ?
A1 apoptosis 2: 0.5

Results for CC(C)NC(=O)N(C)C[C@@H]1OCCCC[C@@H](C)Oc2ccc(N(C)C)cc2C(=O)N([C@@H](C)CO)C[C@H]1C ?
A1 apoptosis 2: 0.6

What do the screens show for `C[C@@H]1CN([C@H](C)CO)C(=O)c2cc(NC(=O)Nc3ccc(C(F)(F)F)cc3)ccc2O[C@@H](C)CCCCO[C@@H]1CN(C)Cc1ccc(C(F)(F)F)cc1`?
A1 apoptosis 2: 0.8

How did C[C@H]1CN([C@@H](C)CO)C(=O)c2cccc(NC(=O)NC3CCCCC3)c2O[C@@H]1CN(C)Cc1ccc(C(F)(F)F)cc1 do in these assays?
A1 apoptosis 2: 0.0

How did COc1cc2c(cc1OC)CN(C(=O)[C@@H]1[C@H]3C(=O)O[C@H](c4ccccc4)[C@H](c4ccccc4)N3[C@H](c3ccccc3OCCO)[C@@]13C(=O)Nc1ccc(C#CCCO)cc13)CC2 do in these assays?
A1 apoptosis 2: -1.5

Results for C[C@@H]1CN([C@H](C)CO)C(=O)c2cc(NS(=O)(=O)c3cccs3)ccc2O[C@H]1CN(C)Cc1ccc(-c2ccccc2)cc1 ?
A1 apoptosis 2: -1.2

What do the screens show for `C[C@H](CO)N1C[C@H](C)[C@@H](CN(C)CC2CC2)Oc2ccc(NC(=O)Nc3ccc4c(c3)OCO4)cc2CC1=O`?
A1 apoptosis 2: -1.2

Results for C=CC1c2cc(O)c(OC)cc2CCN1Cc1cc2c(cc1Br)OCO2 (stereo not drawn) ?
A1 apoptosis 2: 0.6

How did C=CCN(Cc1ccccc1)C(=O)[C@H]1N(Cc2ccc(OC)cc2)C(=O)[C@@H]2[C@@H](C(=O)O)C3C=CC21O3 (stereo partly drawn) do in these assays?
A1 apoptosis 2: 0.5

Results for C[C@H]1CN([C@@H](C)CO)C(=O)c2cccc(NC(=O)C3CCCCC3)c2O[C@H]1CN(C)C(=O)NC1CCCCC1 ?
A1 apoptosis 2: -0.5

How did C[C@@H]1CN([C@H](C)CO)C(=O)c2cc(NC(=O)Nc3ccc(C(F)(F)F)cc3)ccc2O[C@H]1CN(C)Cc1ccncc1 do in these assays?
A1 apoptosis 2: 0.1

How did CNC[C@H]1OCCCC[C@@H](C)Oc2ccc(NC(=O)Nc3ccccc3)cc2C(=O)N([C@@H](C)CO)C[C@@H]1C do in these assays?
A1 apoptosis 2: -0.2

7 compounds from above, sorted by heavy-atom count, ascending.
Results for C[C@H](CO)N1C[C@H](C)[C@H](CN(C)C(=O)NC2CCCCC2)Oc2ccc(NS(C)(=O)=O)cc2C1=O ?
A1 apoptosis 2: 0.5

How did C=CCN(Cc1ccccc1)C(=O)[C@H]1N(Cc2ccc(OC)cc2)C(=O)[C@@H]2[C@@H](C(=O)O)C3C=CC21O3 (stereo partly drawn) do in these assays?
A1 apoptosis 2: 0.5

Results for CC(C)NC(=O)N(C)C[C@@H]1OCCCC[C@@H](C)Oc2ccc(N(C)C)cc2C(=O)N([C@@H](C)CO)C[C@H]1C ?
A1 apoptosis 2: 0.6

How did CNC[C@H]1OCCCC[C@@H](C)Oc2ccc(NC(=O)Nc3ccccc3)cc2C(=O)N([C@@H](C)CO)C[C@@H]1C do in these assays?
A1 apoptosis 2: -0.2

What do the screens show for `C[C@H](CO)N1C[C@H](C)[C@@H](CN(C)CC2CC2)Oc2ccc(NC(=O)Nc3ccc4c(c3)OCO4)cc2CC1=O`?
A1 apoptosis 2: -1.2

How did C[C@@H]1CN([C@H](C)CO)C(=O)c2cc(NC(=O)Nc3ccc(C(F)(F)F)cc3)ccc2O[C@H]1CN(C)Cc1ccncc1 do in these assays?
A1 apoptosis 2: 0.1

Results for C[C@@H]1CN([C@H](C)CO)C(=O)c2cc(NS(=O)(=O)c3cccs3)ccc2O[C@H]1CN(C)Cc1ccc(-c2ccccc2)cc1 ?
A1 apoptosis 2: -1.2

(next part)
How did C[C@H](CO)N1C[C@H](C)[C@H](CN(C)Cc2ccccc2)Oc2c(NC(=O)C3CCCCC3)cccc2C1=O do in these assays?
A1 apoptosis 2: -1.0

Results for C[C@@H]1CN([C@@H](C)CO)C(=O)c2cccc(NC(=O)C3CCCCC3)c2O[C@H]1CN(C)S(=O)(=O)c1cccs1 ?
A1 apoptosis 2: 0.3

How did C[C@H](CO)N1C[C@H](C)[C@H](CN(C)C(=O)Nc2ccc3c(c2)OCO3)Oc2ccc(NC(=O)Cc3cn(C)c4ccccc34)cc2C1=O do in these assays?
A1 apoptosis 2: 1.2

What do the screens show for `C[C@@H]1CN([C@H](C)CO)C(=O)Cc2cc(NC(=O)Nc3ccccc3)ccc2O[C@H]1CN(C)Cc1ccc2c(c1)OCO2`?
A1 apoptosis 2: -0.8

How did CNC[C@H]1Oc2ccc(NC(=O)Nc3ccc(OC)cc3)cc2C(=O)N([C@@H](C)CO)C[C@H]1C do in these assays?
A1 apoptosis 2: -1.3

Results for C[C@H](CO)N1C[C@H](C)[C@H](CN(C)Cc2ccc(C(F)(F)F)cc2)Oc2c(NC(=O)C3CC3)cccc2C1=O ?
A1 apoptosis 2: -1.5

What do the screens show for `CCCN(C)C[C@H]1OCCCC[C@H](C)Oc2ccc(NC(=O)CCC(F)(F)F)cc2C(=O)N([C@@H](C)CO)C[C@H]1C`?
A1 apoptosis 2: 0.0

Results for C[C@@H]1CN([C@@H](C)CO)C(=O)c2cc(NC(=O)Nc3ccc(F)cc3)ccc2O[C@@H](C)CCCCO[C@@H]1CN(C)C(=O)CCCN(C)C ?
A1 apoptosis 2: -0.7

Results for C[C@H]1CN([C@@H](C)CO)C(=O)c2cccc(NC(=O)c3ccc(-c4nccs4)cc3)c2O[C@@H]1CN(C)C(=O)Nc1ccc(C(F)(F)F)cc1 ?
A1 apoptosis 2: 0.6

What do the screens show for `Cc1noc(C)c1NC(=O)Nc1ccc2c(c1)CC(=O)N([C@@H](C)CO)C[C@H](C)[C@H](CN(C)S(=O)(=O)c1ccc(Cl)cc1)O2`?
A1 apoptosis 2: 0.0

How did COc1ccc(CN(C)C[C@@H]2Oc3c(NS(=O)(=O)c4cn(C)cn4)cccc3C(=O)N([C@H](C)CO)C[C@@H]2C)cc1 do in these assays?
A1 apoptosis 2: -0.5

Results for COc1ccc(S(=O)(=O)N(C)C[C@H]2Oc3ccc(NC(=O)NC(C)C)cc3C(=O)N([C@H](C)CO)C[C@@H]2C)cc1 ?
A1 apoptosis 2: 0.6

What do the screens show for `C[C@H](CO)N1C[C@H](C)[C@@H](CN(C)C(=O)Nc2ccc(F)cc2)Oc2ccc(N(C)C)cc2C1=O`?
A1 apoptosis 2: -0.5

How did C[C@H]1CN([C@@H](C)CO)C(=O)CCCn2cc(nn2)CO[C@@H]1CN(C)C(=O)Nc1ccc(N2CCCCC2)cc1 do in these assays?
A1 apoptosis 2: 0.1

What do the screens show for `CCO[C@@H]1OC(C(=O)NCc2ccccc2)=C[C@H](c2ccc(Br)cc2)[C@H]1CCCO`?
A1 apoptosis 2: -0.1

What do the screens show for `C[C@@H]1CN([C@@H](C)CO)C(=O)c2cc(NC(=O)Nc3ccc(C(F)(F)F)cc3)ccc2O[C@@H](C)CCCCO[C@H]1CN(C)C(=O)Nc1cccc2ccccc12`?
A1 apoptosis 2: -0.4

How did C[C@H]1CN([C@@H](C)CO)C(=O)Cc2cc(NC(=O)c3ccncc3)ccc2O[C@H]1CN(C)Cc1ccccc1 do in these assays?
A1 apoptosis 2: 0.4

What do the screens show for `CNC[C@H]1OCCCC[C@@H](C)Oc2ccc(NC(=O)C3CCCCC3)cc2C(=O)N([C@@H](C)CO)C[C@@H]1C`?
A1 apoptosis 2: 0.1

What do the screens show for `C/C=C(C)\C=N\NC(=O)CCCCC(=O)NO`?
A1 apoptosis 2: 0.0

Results for Cc1noc(C)c1S(=O)(=O)Nc1ccc2c(c1)C(=O)N([C@H](C)CO)C[C@@H](C)[C@@H](CN(C)Cc1ccc(C(=O)O)cc1)O2 ?
A1 apoptosis 2: 2.0

Results for C[C@@H]1CN([C@H](C)CO)C(=O)c2cccc(NC(=O)c3ccc(-c4nccs4)cc3)c2O[C@@H]1CN(C)C ?
A1 apoptosis 2: -0.8

What do the screens show for `C[C@@H]1CN([C@@H](C)CO)C(=O)Cc2cc(NS(=O)(=O)c3cn(C)cn3)ccc2O[C@@H]1CN(C)C(=O)Nc1ccc(F)cc1`?
A1 apoptosis 2: -0.6

Results for CNC[C@@H]1Oc2ccc(NS(=O)(=O)c3ccccc3)cc2CC(=O)N([C@H](C)CO)C[C@H]1C ?
A1 apoptosis 2: 1.7

What do the screens show for `C[C@@H]1CCCCO[C@@H](CN(C)Cc2ccc(C(=O)O)cc2)[C@@H](C)CN([C@H](C)CO)C(=O)c2cc(NS(=O)(=O)c3ccc(Cl)cc3)ccc2O1`?
A1 apoptosis 2: -0.2

What do the screens show for `C[C@H]1CN([C@@H](C)CO)C(=O)Cc2cc(NC(=O)Nc3ccc(F)cc3)ccc2O[C@H]1CN(C)Cc1ccccc1`?
A1 apoptosis 2: 1.3

Results for C[C@H]1CN([C@@H](C)CO)C(=O)Cc2cc(NC(=O)CCCCCC(=O)Nc3ccccc3N)ccc2O[C@H]1CN(C)S(=O)(=O)c1ccc(F)cc1 ?
A1 apoptosis 2: -0.2

Results for C[C@@H]1CCCCO[C@H](CN(C)C(=O)CCC(F)(F)F)[C@H](C)CN([C@H](C)CO)C(=O)c2cc(NC(=O)C3CCCCC3)ccc2O1 ?
A1 apoptosis 2: -0.9

How did COc1ccc(CN(C)C[C@@H]2OCCCC[C@H](C)Oc3ccc(NC(=O)Nc4ccc(F)cc4)cc3C(=O)N([C@@H](C)CO)C[C@H]2C)cc1 do in these assays?
A1 apoptosis 2: -0.2

What do the screens show for `C[C@H](CO)N1C[C@H](C)[C@@H](CN(C)C(=O)Nc2ccc(F)cc2)Oc2c(NC(=O)c3ccc(-c4nccs4)cc3)cccc2C1=O`?
A1 apoptosis 2: 0.6

How did C[C@@H]1CN([C@@H](C)CO)C(=O)Cc2cc(NC(=O)CCCCCC(=O)Nc3ccccc3N)ccc2O[C@H]1CN(C)Cc1ccc(C(F)(F)F)cc1 do in these assays?
A1 apoptosis 2: 1.8

Results for C[C@@H]1CN([C@H](C)CO)C(=O)c2cc(NC(=O)Nc3ccc(C(F)(F)F)cc3)ccc2O[C@@H](C)CCCCO[C@@H]1CN(C)C(=O)Cc1ccccc1 ?
A1 apoptosis 2: 0.1

Results for C[C@@H]1CN([C@H](C)CO)C(=O)c2cc(N(C)C)ccc2O[C@@H](C)CCCCO[C@@H]1CN(C)CC1CCCCC1 ?
A1 apoptosis 2: -0.7

How did Cc1noc(C)c1NC(=O)N(C)C[C@@H]1Oc2ccc(NC(=O)C3CC3)cc2C(=O)N([C@H](C)CO)C[C@@H]1C do in these assays?
A1 apoptosis 2: -0.3

What do the screens show for `C[C@H]1CN([C@@H](C)CO)C(=O)c2cccc(NC(=O)NC3CCCCC3)c2O[C@@H]1CN(C)Cc1ccc(Cl)c(Cl)c1`?
A1 apoptosis 2: 0.2

Results for C[C@@H]1CN([C@H](C)CO)C(=O)c2cccc(NC(=O)C3CCCCC3)c2O[C@H]1CN(C)S(=O)(=O)c1cccs1 ?
A1 apoptosis 2: 0.5

How did C[C@@H]1CN([C@@H](C)CO)C(=O)Cc2cc(NS(=O)(=O)c3ccc(Cl)cc3)ccc2O[C@H]1CN(C)C(=O)Nc1ccc2c(c1)OCO2 do in these assays?
A1 apoptosis 2: 1.0

What do the screens show for `[N-]=[N+]=NCc1ccccc1C[C@]1(C(=O)N2CCOCC2)N=C(c2ccc(OCCCO)cc2)O[C@H]1c1ccccc1`?
A1 apoptosis 2: 1.5

What do the screens show for `COc1ccc(/C=N/NC(=O)c2ccccc2O)cc1OC`?
A1 apoptosis 2: 1.0

Results for Cc1noc(C)c1S(=O)(=O)N(C)C[C@H]1Oc2ccc(NC(=O)CCCCCC(=O)Nc3ccccc3N)cc2CC(=O)N([C@@H](C)CO)C[C@@H]1C ?
A1 apoptosis 2: 0.1

What do the screens show for `C[C@H](CO)N1C[C@H](C)[C@@H](CN(C)C(=O)Nc2ccccc2)Oc2c(NC(=O)C3CCOCC3)cccc2C1=O`?
A1 apoptosis 2: -0.5

How did C[C@H]1CN([C@@H](C)CO)C(=O)c2cccc(NS(=O)(=O)c3cccs3)c2O[C@@H]1CN(C)S(=O)(=O)c1cn(C)cn1 do in these assays?
A1 apoptosis 2: -0.3

How did C[C@@H]1CN([C@H](C)CO)C(=O)c2cccc(NC(=O)c3nc4ccccc4s3)c2O[C@H]1CN(C)S(=O)(=O)c1cn(C)cn1 do in these assays?
A1 apoptosis 2: 0.8

Results for O=C(NC1CC1)C1=C[C@H](C2CCCCC2)C[C@H](OCc2ccc(CO)cc2)O1 ?
A1 apoptosis 2: -0.3

Results for C[C@@H]1CN([C@H](C)CO)C(=O)Cc2cc(NC(=O)Nc3cccc4ccccc34)ccc2O[C@H]1CN(C)S(=O)(=O)c1ccccc1 ?
A1 apoptosis 2: 2.6

How did C[C@@H]1CCCCO[C@H](CN(C)C(=O)Nc2ccccc2)[C@@H](C)CN([C@H](C)CO)C(=O)c2cc(NS(=O)(=O)c3cccs3)ccc2O1 do in these assays?
A1 apoptosis 2: -0.8

What do the screens show for `Cc1ccc(S(=O)(=O)Nc2ccc3c(c2)C(=O)N([C@H](C)CO)C[C@H](C)[C@H](CN(C)C)O3)cc1`?
A1 apoptosis 2: -0.3

How did Cc1noc(C)c1S(=O)(=O)Nc1cccc2c1O[C@@H](CN(C)CC1CC1)[C@@H](C)CN([C@@H](C)CO)C2=O do in these assays?
A1 apoptosis 2: 0.2

How did C[C@@H]1CN([C@@H](C)CO)C(=O)c2cccc(NC(=O)Nc3ccc4c(c3)OCO4)c2O[C@H]1CN(C)S(=O)(=O)c1ccc(Cl)cc1 do in these assays?
A1 apoptosis 2: 0.8
